FGF22 binding: binders of recombinant human FGF22 by thermal shift; hit rate 1.5% among 340,000; AID 651658; calls only at 9.99 µM; SYPRO orange fluorescence; percent of sucrose octasulfate shift, DMSO zero;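 active means melting point raised past a set limit in the mean and every replicate; three in four hits are not shown here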
HNF4A DNA FP: change in binding of human HNF4 alpha to DNA; P41235; HNF4a-FITC DNA binding, fluorescence polarization, 1 h; activity change, % at 10 µM; hit rate 0.3% among 360,000; AID 1224865; in the data active means activity change above about 30%, passing the limit was not always enough;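 further: controls were the assay level and a saturating level of protein; the project sought stronger binding though the title names inhibitors; some compounds called inactive have numbers as strong as hits; positive values seem to mean higher polarization but the record does not say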
E coli growth: E. coli growth inhibition. hit rate 0.21% among 330,000. Escherichia coli growth, OD600, 23 h; active compounds read low. OD600 absorbance (test concentration not listed). AID 1053175;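 active means OD600 absorbance below the run mean of sample wells minus 3.6 SD, in any replicate, cut at about 0.56 in these data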;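 further: stock transfer was 300 nL into about 60 µL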
UCH37 inh: human UCH37 deubiquitinating enzyme inhibition; purified proteasome/UCH37, Ub-AMC cleavage fluorescence; AID 588478; Q9Y5K5; inhibition, % (test concentration not listed); hit rate 0.33% among 330,000;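 active means mean of two replicates above 20%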;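 further: 0% = compound-free wells with enzyme and 100% = wells lacking proteasome; stock transfer was 100 nL into about 20 µL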
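Test system – human UCH37 enzyme supplied as purified proteasome complex · Incubation – 30 min preincubation with enzyme, 25 min cleavage at room temperature · Detection – AMC fluorescence from Ub-AMC cleavage, excitation 355 nm, emission 460 nm · Benchmarks – no-proteasome wells (full inhibition) and compound-free wells (no inhibition)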
LANA-H2A inh: blocks KSHV LANA binding to histone H2A/H2B | hit rate 0.6% among 320,000 | Q9QR71 | cell-free LANA-H2A/H2B peptide, fluorescence polarization | inhibition, % (concentration not given with the values); in the data active means inhibition mostly above about 10%, no sharp cut-off; inactive means mostly below about 6.7%;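 further: stock transfer was 7.5 nL into about 10 µL; 0% = median of vehicle wells and 100% = median of positive control wells; one replicate is shown; the record names a cut of 25% in any replicate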
Target sequence (Q9QR71 whole entry, looked up): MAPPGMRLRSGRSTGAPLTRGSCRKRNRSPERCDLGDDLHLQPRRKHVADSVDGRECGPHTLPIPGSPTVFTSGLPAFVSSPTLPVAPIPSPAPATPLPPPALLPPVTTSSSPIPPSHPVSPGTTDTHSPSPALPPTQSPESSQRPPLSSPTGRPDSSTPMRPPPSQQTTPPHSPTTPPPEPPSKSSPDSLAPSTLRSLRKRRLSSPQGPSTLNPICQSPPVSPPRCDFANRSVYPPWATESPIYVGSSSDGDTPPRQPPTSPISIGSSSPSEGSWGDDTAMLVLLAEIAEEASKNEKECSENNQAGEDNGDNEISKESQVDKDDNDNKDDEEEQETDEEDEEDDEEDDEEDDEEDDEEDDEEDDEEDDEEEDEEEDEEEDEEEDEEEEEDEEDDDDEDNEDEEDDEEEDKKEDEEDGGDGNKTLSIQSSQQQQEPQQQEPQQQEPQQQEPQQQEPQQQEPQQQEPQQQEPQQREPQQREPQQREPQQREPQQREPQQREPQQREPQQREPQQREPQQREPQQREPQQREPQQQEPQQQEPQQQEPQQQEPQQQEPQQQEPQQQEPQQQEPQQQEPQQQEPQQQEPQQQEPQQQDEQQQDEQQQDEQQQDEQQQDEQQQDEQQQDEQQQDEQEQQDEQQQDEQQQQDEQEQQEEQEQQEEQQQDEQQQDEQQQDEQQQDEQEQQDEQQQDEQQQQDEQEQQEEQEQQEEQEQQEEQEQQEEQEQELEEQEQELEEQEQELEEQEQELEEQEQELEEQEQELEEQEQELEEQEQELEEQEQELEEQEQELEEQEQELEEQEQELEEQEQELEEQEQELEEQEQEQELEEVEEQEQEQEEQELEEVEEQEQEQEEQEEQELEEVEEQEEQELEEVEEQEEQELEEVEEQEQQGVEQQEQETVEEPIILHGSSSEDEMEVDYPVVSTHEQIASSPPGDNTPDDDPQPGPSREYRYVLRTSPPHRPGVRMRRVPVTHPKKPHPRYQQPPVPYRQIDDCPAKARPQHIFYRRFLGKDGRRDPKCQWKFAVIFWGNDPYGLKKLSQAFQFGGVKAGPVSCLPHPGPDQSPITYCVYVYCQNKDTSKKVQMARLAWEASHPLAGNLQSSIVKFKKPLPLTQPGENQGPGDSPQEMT
B2AR ag: activates human beta-2 adrenergic receptor causing internalization; P07550; response, % (test concentration not listed); hit rate 0.43% among 340,000; Am2.2-beta2AR cells, FAP receptor internalization, flow cytometry; reference of the scale not given here;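 active means response above a set limit, near 3 SD of response in nonfluorescent compounds, cut at about 42% in these data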;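 further: stock transfer was 100 nL into about 11 µL; a reference agonist was the positive control; negative values mostly stem from fluorescent compounds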
ALR inh: human ALR oxidase inhibition via reduced H2O2; P55789; purified ALR, DTT oxidation, H2O2 HRP-luminol luminescence; inhibition, % (concentration not given with the values); hit rate 3.8% among 290,000;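 active means mean and each replicate at 75% or more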;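 further: stock transfer was 7.5 nL into about 7.5 µL; 0% = neutral wells and 100% = wells with inactivated enzyme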
Starred values were filed as active, the others as inactive; i = inactive; . = no result given; & = joins results of further samples. These rows are one share of the data; rates above refer to the full screens.

| SMILES | UCH37 inh | E coli growth | B2AR ag | HNF4A DNA FP | FGF22 binding | LANA-H2A inh | ALR inh |
| --- | --- | --- | --- | --- | --- | --- | --- |
| Cc1cc(C)c(O)c(-c2n[nH]c3c2C(c2cccc(O)c2)N(Cc2ccco2)C3=O)c1 (centres undefined) | 1.7 | 0.65 | 6 | -0.9 | i | -6.5 | . |
| CN(CCNC(=O)C1CCC(=O)N(Cc2ccc(Cl)cc2)C1)CCc1ccccc1 (centres undefined) | 2.1 | 0.69 | -14 | -0.6 | i | -1.6 | 1 |
| CCOc1ccc(C2C(C(=O)OC)=C(C)N=C3SCCC(=O)N32)cc1OCC (centres undefined) | 12 | 0.72 | -6 | 0.5 | . | -2.8 | -12 |
| NCCCn1c(C(=O)c2ccc(Cl)cc2)c2ccc(C(F)(F)F)cc2[n+]1[O-] | . | . | 28 | 4.1 | i | 2.1 | -28 |
| O=C(NNS(=O)(=O)c1ccccc1)C1CCN(S(=O)(=O)c2ccccc2)CC1 | 4.4 | 0.73 | 0 | 5.5 | . | 1.4 | 14 |
| O=C(O)C1C(c2ccccc2)C(C(=O)Oc2ccc(O)cc2)C1c1ccccc1 (centres undefined) | -0.2 | 0.7 | 7 | 0.2 | . | -6.2 | 94* |
| Cc1[nH]n2c(=O)c3c(nc2c1-c1ccccc1)CCCC3 | -2.1 | 0.7 | -3 | 6.2 | . | 4.3 | -1 |
| CCC(NC(=O)c1ccccc1NC(=O)c1ccco1)C(=O)NNC(=O)c1ccncc1 (centres undefined) | 1.4 | 0.66 | -7 | -6.8 | i | -6.2 | -59 |
| CCOCCCN1CN(Cc2ccccc2)CNC1=S | 3.1 | 0.67 | -2 | -0.8 | . | -2.4 | -1 |
| Cc1cccc(C)c1NC1=NC2(CCCCC2)N=C(N)N1 | 1.1 | 0.71 | 5 | 0.0 | . | 1.0 | -4 |
| CC(C)CCCC(C)NS(=O)(=O)Cc1ccccc1 (centres undefined) | 0.6 | 0.72 | 3 | -1.3 | . | -4.5 | 11 |
| COc1ccc(S(=O)(=O)N(C)C[C@H]2Oc3ccc(NC(=O)Cc4ccccc4)cc3C(=O)N([C@H](C)CO)C[C@@H]2C)cc1 | 1.7 | . | -1 | 1.0 | i | 0.4 | 3 |
| Nc1c(-c2ccccc2)cnn1-c1cccc(Cl)c1 | 6.1 | 0.68 | 0 | 1.0 | i | 0.9 | 29 |
| Cc1cccc(-c2cc(C(=O)N3CCCc4ccccc43)c3ccccc3n2)c1 | 3.4 | 0.7 | -5 | -2.2 | . | 3.2 | -2 |
| CC(C)CN(C(=O)C1CCC1)c1c(N)n(Cc2ccccc2)c(=O)[nH]c1=O | 2.4 | 0.7 | -18 | -3.3 | i | 4.9 | -14 |
| CC(=O)Nc1nc2c(s1)CCc1ccccc1-2 | 1.6 | 0.76 | 4 | -1.2 | i | 4.5 | -22 |
| COc1ccc(S(=O)(=O)NCC(=O)Nc2ccc(F)cc2)cc1 | 1.3 | 0.7 | 0 | -3.5 | i | -2.5 | 1 |
| O=C(N=Nc1c(O)[nH]c2ccc(Cl)cc12)c1cc(-c2cccs2)nc2ccccc12 | 7.7 | 0.67 | 47* | 0.2 | . | i | 1 |
| CCN(c1cccc(C)c1)S(=O)(=O)c1ccc(OC)c([N+](=O)[O-])c1 | 3.9 | 0.67 | 7 | -1.0 | i | -2.5 | 18 |
| Cc1cc(C)cc(NC(=O)N2CCC(c3nc4ccccc4o3)CC2)c1 | 3.7 | 0.68 | -9 | 2.0 | . | -0.2 | 0 |

Among those listed so far, 2 have a furan ring, fused or not:
| SMILES | UCH37 inh | E coli growth | B2AR ag | HNF4A DNA FP | FGF22 binding | LANA-H2A inh | ALR inh |
| --- | --- | --- | --- | --- | --- | --- | --- |
| Cc1cc(C)c(O)c(-c2n[nH]c3c2C(c2cccc(O)c2)N(Cc2ccco2)C3=O)c1 (centres undefined) | 1.7 | 0.65 | 6 | -0.9 | i | -6.5 | . |
| CCC(NC(=O)c1ccccc1NC(=O)c1ccco1)C(=O)NNC(=O)c1ccncc1 (centres undefined) | 1.4 | 0.66 | -7 | -6.8 | i | -6.2 | -59 |

(further entries)
| SMILES | UCH37 inh | E coli growth | B2AR ag | HNF4A DNA FP | FGF22 binding | LANA-H2A inh | ALR inh |
| --- | --- | --- | --- | --- | --- | --- | --- |
| CCOC(=O)c1c(C)n(C(=O)c2ccco2)c(=O)n1C(=O)c1ccco1 | 1.9 | 0.67 | 8 | -2.0 | . | 1.4 | 97* |
| CC1=C(c2ccc(F)cc2)[N+](=O)C(C)(C)N1[O-] | 6.6 | 0.69 | -1 | 1.7 | i | 3.5 | -3 |
| C=Cc1ccc(CN2CCCN(Cc3ccc(Cl)cc3)S2(=O)=O)cc1 | 4.2 | 0.67 | -1 | -1.0 | i | 0.5 | 1 |
| O=S(=O)(c1ccc(Cl)cc1)N1CCN(C2CCN(Cc3ccccc3)CC2)CC1 | 2.9 | 0.72 | -8 | -2.0 | . | -1.2 | -10 |
| O=C(/C=C/c1ccco1)OCC1CCCN2CCCCC12 (centres undefined) | 5.3 | 0.69 | 2 | -1.8 | i | -8.1 | -1 |
| CC1CN(c2nc3ccccn3c(=O)c2/C=C(\C#N)S(=O)(=O)c2ccccc2)CC(C)O1 (centres undefined) | 3.1 | 0.69 | 9 | 1.3 | . | -1.1 | 0 |
| N#CCCN(C(=O)c1ccc2c(=O)n3c(nc2c1)CCCCC3)c1ccccc1 | 2.1 | 0.7 | -8 | -4.1 | i | 6.3 | 1 |
| Cn1c(-c2sc3cc(C(F)(F)F)cnc3c2-c2cccs2)n[nH]c1=S | -0.5 | 0.69 | -9 | 2.2 | i | 4.9 | -26 |
| CCCCNC(=S)Nc1ccc(OC)nc1 | 4.4 | 0.64 | -2 | -13 | i | -0.3 | -12 |
| CCCn1c(/N=C/c2ccc3c(c2)OCO3)nc2ccccc21 | . | . | -1 | 1.6 | . | 0.1 | 12 |
| N#C/C(=C(/O)c1cccc(F)c1)c1nc2ccccc2s1 | 11 | 0.61 | 7 | 1.9 | i | 0.4 | 1 |
| CCCN1C(=O)C(O)(C2CC(=O)CC(C)(C)O2)c2ccccc21 (centres undefined) | -0.4 | 0.71 | -5 | 2.5 | . | 0.4 | -2 |
| COc1cc(C(=O)Nc2ccc(N3CCN(C(=O)c4ccc(C)cc4)CC3)cc2)cc(OC)c1OC | 1.1 | 0.69 | 13 | 0.8 | i | -6.8 | . |
| O=C(Nc1nccs1)C1CC2CCC1C2 (centres undefined) | 2.9 | 0.64 | -14 | 1.1 | . | -3.9 | 3 |
| COc1ccccc1CN1CCNC(=O)C1CC(=O)NCCC1=CCCCC1 (centres undefined) | 1.4 | 0.65 | 6 | -0.9 | i | -3.2 | 0 |
| Cc1cc(SCC(=O)NC2CC2)nc2ccccc12 | 3.2 | 0.69 | 7 | 2.1 | i | -0.8 | 7 |
| CSc1ccc(/C=C(\C#N)C(=O)NC2CCCCC2C)cc1 (centres undefined) | 5.8 | 0.73 | 20 | -4.2 | i | -4.4 | 50 |
| COc1ccc(CNC(=O)C2CCCN(c3ncnc4c3nc3n4CCCCC3)C2)cc1 (centres undefined) | 3.5 | 0.69 | -9 | 4.1 | . | 4.1 | -4 |
| COc1ccc(C(=O)CCC(=O)Nc2ccc(N3CCN(C)CC3)cc2)cc1OC | 4.8 | 0.71 | 11 | -3.0 | i | 4.3 | 1 |
| CCOC(=O)C1CCN(C(=O)COC(=O)c2oc3ccccc3c2C)CC1 | 2.1 | 0.69 | -1 | 0.7 | i | -1.5 | -11 |
| CCN1CCN(c2ncc(C(=O)Nc3c(F)cc(F)cc3Br)c3ccccc23)CC1 | 2.1 | 0.68 | 0 | 2.8 | . | -3.6 | -3 |
| O=C(C[n+]1ccccc1)Nc1ccc(Cl)c([N+](=O)[O-])c1 | 3.4 | 0.68 | 1 | 2.2 | i | -3.5 | -3 |
| O=C1OC[C@H]2CCCN2C(=O)[C@@H](CC(=O)N(CCO)Cc2ccccc2)C/C=C\C[C@@H]1Cc1ccc(F)cc1 | -0.2 | . | -3 | -5.0 | i | -5.3 | -1 |
| CC(C)CCN1CCN(Cc2cccc(C(F)(F)F)c2)CC1CCO (centres undefined) | 5.6 | 0.69 | -9 | 1.7 | i | 0.0 | -13 |
| O=C(NC(=S)NCCc1ccccc1)c1cccc(Cl)c1 | . | . | 6 | -1.5 | i | -4.4 | -22 |
| Nc1c(C(=O)Nc2ccc(F)cc2)sc(=S)n1-c1ccccc1F | 3.0 | 0.74 | -3 | -2.6 | i | 1.6 | . |
| Cc1cccc(CN2CCC(CNC(=O)Nc3ccccc3F)CC2)c1 | 0.8 | 0.67 | -2 | 2.6 | i | . | . |
| C=CCc1ccccc1OCC(O)CN1CCN(Cc2ccc3c(c2)OCO3)CC1 (centres undefined) | 1.7&1.6 | 0.64&0.69 | -14&-17 | 0.5&2.5 | i | 6.4&-3.1 | -23&-2 |
| OCCN(CC(O)Cn1ccc2ccccc21)CC(O)Cn1ccc2ccccc21 (centres undefined) | 4.4 | 0.67 | 0 | 0.3 | . | 10 | -26 |
| COc1ccc(-c2nnc(NC(=O)C3CCCO3)s2)cc1 (centres undefined) | -5.1 | 0.7 | 0 | 0.4 | . | 0.8 | 26 |
| Cc1nnc(NC(=O)CSc2nnc(C)n2-c2ccc(F)cc2)s1 | -0.6 | 0.67 | -3 | 0.1 | i | 4.7 | 2 |
| CC(=O)C1=C(O)C(=O)N(Cc2ccco2)C1c1ccccc1 (centres undefined) | 4.8 | 0.68 | 1 | 1.8 | i | -2.0 | -9 |
| Cc1cc(CNC(=O)COc2cc(F)ccc2[N+](=O)[O-])c2ccccc2n1 | 3.6 | 0.69 | -5 | 1.3 | i | 8.8 | -6 |
| CN(CC(=O)Nc1c(Cl)cccc1Cl)C(=O)CCc1nc2sc3c(c2c(=O)[nH]1)CCCC3 | -1.5 | 0.69 | -2 | 6.4 | i | 2.4 | 48 |
| Cc1ccc2nc(-c3ccc(SCC(=O)O)nc3)[nH]c2c1 | i | 0.71 | 2 | -2.9 | . | 5.7 | 98* |
| O=C(Nc1ccc(Br)c(C(F)(F)F)c1)c1ccccc1 | 1.5 | 0.63 | 3 | 2.2 | i | 2.5 | -3 |
| Cc1ccc(NC(=O)COc2ccc3oc4c(c3c2)CCCC4)nc1 | -0.3 | 0.76 | -3 | -1.8 | . | -2.7 | -13 |
| CCOC(=O)COc1nc(N(C)C)nc(N(C)C)n1 | 2.4 | 0.74 | 4 | -2.8 | . | 1.5 | -3 |
| N=c1n(CC(=O)c2ccc(Br)cc2)c2ccccc2n1Cc1ccccc1 | -0.2 | 0.61 | 74* | 0.8 | i | 4.2 | -15 |
| Cc1onc(-c2ccccc2Cl)c1C(=O)NNC(=O)C1CCN(Cc2ccccc2)CC1 | 3.3 | 0.66 | -5 | 2.4 | i | -1.4 | -6 |

Reformatted: entries from further up.
structure: CCN(c1cccc(C)c1)S(=O)(=O)c1ccc(OC)c([N+](=O)[O-])c1
  UCH37 inh: 3.9
  E coli growth: 0.67
  B2AR ag: 7
  HNF4A DNA FP: -1.0
  FGF22 binding: i
  LANA-H2A inh: -2.5
  ALR inh: 18

structure: Cc1cc(C)cc(NC(=O)N2CCC(c3nc4ccccc4o3)CC2)c1
  UCH37 inh: 3.7
  E coli growth: 0.68
  B2AR ag: -9
  HNF4A DNA FP: 2.0
  FGF22 binding: .
  LANA-H2A inh: -0.2
  ALR inh: 0

(next part)
| SMILES | UCH37 inh | E coli growth | B2AR ag | HNF4A DNA FP | FGF22 binding | LANA-H2A inh | ALR inh |
| --- | --- | --- | --- | --- | --- | --- | --- |
| COc1ccc(/C=C/C(=O)N2CCN(S(=O)(=O)/C=C/c3ccccc3)CC2)cc1OC | -1.7 | 0.68 | -6 | -3.8 | . | -1.6 | -5 |
| CCC1(c2ccc(F)cc2)NC(=O)N(CC(=O)Nc2cccc(S(=O)(=O)N3CCOCC3)c2)C1=O (centres undefined) | 0.1 | 0.71 | -10 | -2.9 | i | . | . |
| CN1CCN(C(=O)c2ccc(COc3cc(Cl)ccc3Cl)o2)CC1 | 6.8 | 0.66 | -4 | 4.9 | i | -0.5 | -3 |
| O=C(Nc1ccc(NC(=O)c2ccccc2F)cn1)c1ccco1 | 3.2 | 0.65 | 13 | -2.1 | i | -1.4 | 1 |
